Screening data (PubChem)
Rango release inh = inhibitors of RanGTP-induced Rango-importin beta complex dissociation; O95149+P62826; Biochemical FRET Rango-importin beta, RanGTP-induced dissociation; Potency, µM (titrated, usually from 46.1 µM), without a hit: top-dose activity change, negative = inhibition; 340,000 tested, 0.071% active; AID 540253; active means falling FRET ratio curve, often poorly fitted, with flat reads before Ran was added; inconclusive means other falling curves, or compound fluorescence or quenching; inactive means flat or rising ratio curve;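 further: potency means the concentration at half of the fitted maximal effect; % of control where 0% means no effect; nearly all actives have a fitted effect of over 45% in size; -100% = wells without RanGTP and RCC1; the record marks most hits as doubtful in a second field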
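Compounds sat 5 min at room temperature with 0.1 uM Rango biosensor plus 0.25 uM importin beta, then FRET pre-read. RanGTP-RCC1 (0.6 uM Ran, 2mM GTP, 0.2 uM RCC1) added for 45 min, and the CFP/YFP post-read measured blocked complex dissociation.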
miR-21 reporter = miR-21 reporter, rising signal; Potency, µM (titrated, usually from 38.3 µM), for inactives: top-dose reporter change, positive = more light; 340,000 tested, under 10 active; AID 2288; HeLa miR-21 FLuc reporter, luciferase, 48 h; active = well fitted rising curve with a large enough effect; inconclusive = small, poorly fitted or top-dose-only effect; inactive = no such curve, though single readings can be large or run the other way;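 further: % of control where 0% means no effect; miR-21 action dims this reporter so a rising signal means less miR-21 action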
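HeLa miR-21-FLuc reporter line, endogenous miR-21; 2000 cells/well in DMEM/10% FBS; compound titration up to ~40uM final, 48 h, 37 degree Celsius; luciferase detection reagent, 15 min lysis, CCD luminescence.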
Rango-impB inh = Rango-importin beta binding inhibition | Q14974 | Rango CFP/YFP FRET sensor + importin beta, 45 min | Potency, µM (series often up to 92.2 µM), for the others: at the top dose inhibition of complex formation | 340,000 tested, 0.031% active | AID 540263; active = rising FRET ratio curve, often small or poorly fitted; inconclusive = mostly compound fluorescence or quenching in the first reads; inactive = flat curves in all reads;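 further: potency means the concentration at half of the fitted maximal effect; 0% = DMSO wells and 100% = buffer wells lacking importin beta; nearly all actives have a fitted effect of over 15% in size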
Target sequence (Q14974 whole entry, looked up): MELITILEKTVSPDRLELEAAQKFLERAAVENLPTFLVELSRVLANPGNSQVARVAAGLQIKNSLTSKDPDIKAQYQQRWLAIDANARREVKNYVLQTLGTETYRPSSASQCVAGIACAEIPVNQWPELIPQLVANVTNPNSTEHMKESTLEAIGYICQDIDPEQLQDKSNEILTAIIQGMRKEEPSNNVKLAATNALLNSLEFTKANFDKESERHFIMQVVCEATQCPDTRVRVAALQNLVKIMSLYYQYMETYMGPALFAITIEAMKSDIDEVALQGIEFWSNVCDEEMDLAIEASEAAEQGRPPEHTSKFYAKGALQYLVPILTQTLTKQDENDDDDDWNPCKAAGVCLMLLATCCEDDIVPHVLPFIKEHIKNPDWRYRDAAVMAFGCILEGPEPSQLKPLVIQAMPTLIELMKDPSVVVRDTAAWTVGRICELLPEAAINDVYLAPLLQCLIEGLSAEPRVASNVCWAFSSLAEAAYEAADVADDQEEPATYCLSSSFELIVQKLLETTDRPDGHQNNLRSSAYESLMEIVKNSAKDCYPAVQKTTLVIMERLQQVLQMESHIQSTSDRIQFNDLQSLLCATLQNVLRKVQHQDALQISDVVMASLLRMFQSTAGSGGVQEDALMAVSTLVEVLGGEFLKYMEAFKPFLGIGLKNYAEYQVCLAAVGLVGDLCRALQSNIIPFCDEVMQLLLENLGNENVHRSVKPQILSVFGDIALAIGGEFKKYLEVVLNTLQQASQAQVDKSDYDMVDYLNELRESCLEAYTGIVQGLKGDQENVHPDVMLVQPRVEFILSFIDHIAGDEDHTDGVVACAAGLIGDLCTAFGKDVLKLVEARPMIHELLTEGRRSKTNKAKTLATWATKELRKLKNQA
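Inhibition scored from the CFP 486 nm/YFP 530 nm FRET ratio 45 min after adding 0.125 microM importin beta to 50 nM Rango biosensor preincubated 5 min with compound (room temperature, PBS with DTT, Tween-20, BSA). No-importin wells as positive control.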
GLA inh pH 4.5 = blocks human alpha-galactosidase A at pH 4.5; P06280; purified enzyme, 4-MU-alpha-Gal fluorescence, pH 4.5; activity change, negative = inhibition, % at 105 µM; 230,000 tested, under 10 active; inconclusive = small, poorly fitted or top-dose-only inhibition, or a rising curve; inactive = flat fitted curve, though single readings scatter; no compound was filed as active;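 further: 0% = full activity with enzyme and -100% = basal without enzyme; dose as in the result columns while the protocol names 77 µM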
* marks the source's active call; other numbers are inactive results; [ ] = another dose, or the depositor's remark.

Screening CCOC(=O)c1c(CC(C)C)csc1NC=O returned Rango release inh 16%, miR-21 reporter -21%, Rango-impB inh 5.8% and GLA inh pH 4.5 4.
Screening Cc1nnc2ccc(N3CCCCC3)nn12 returned Rango release inh -11%, miR-21 reporter 2% and Rango-impB inh inconclusive.
`Cc1ccc(S(=O)(=O)N2CCOCC2)cc1NC(=O)CN1CCN(c2ccc(O)cc2)CC1` gave Rango release inh -1%, miR-21 reporter -9%, Rango-impB inh 1.6% and GLA inh pH 4.5 -4.
Screening CC(=O)NC(=S)Nc1cc(C(=O)O)ccc1Cl returned Rango release inh 18%, miR-21 reporter 0%, Rango-impB inh -0.2% and GLA inh pH 4.5 -13.
Screening Cc1ccc(-c2c(C)n([O-])c3c([n+]2=O)CCCCC3)o1 returned Rango release inh -12%, miR-21 reporter -1%, Rango-impB inh -0.4% and GLA inh pH 4.5 -19.
Screening CCn1c(SCC(=O)c2cc(OC)ccc2OC)nc2c1c(=O)n(C)c(=O)n2C returned miR-21 reporter -4% and GLA inh pH 4.5 -1.
COc1ccc(C(=O)NCC(=O)OCC(=O)c2cc(OC)c(OC)c(OC)c2)cc1OC was read as Rango release inh 2%, miR-21 reporter 2%, Rango-impB inh 0.0% and GLA inh pH 4.5 1.
Screening CCC(C)NC(=O)C1CCN(S(=O)(=O)N2CCCC2)CC1 (configuration not stated) returned Rango release inh 2%, miR-21 reporter -1%, Rango-impB inh -3.3% and GLA inh pH 4.5 -2.
Cc1ccc2sc(N(CCN(C)C)C(=O)c3ccc(S(=O)(=O)N4CC(C)OC(C)C4)cc3)nc2c1C (configuration not stated) was read as Rango release inh -14%, miR-21 reporter -5% and Rango-impB inh -3.6%.
`COc1ccccc1/C=C/CN1CCCC(CO)(Cc2cccc(Cl)c2)C1` (configuration not stated) gave Rango release inh -6%, miR-21 reporter 7%, Rango-impB inh -4.3% and GLA inh pH 4.5 -14.

Brought forward from above: 3 compounds; new compounds follow.
Screening CCC(C)NC(=O)C1CCN(S(=O)(=O)N2CCCC2)CC1 (configuration not stated) returned Rango release inh 2%, miR-21 reporter -1%, Rango-impB inh -3.3% and GLA inh pH 4.5 -2.
Cc1ccc2sc(N(CCN(C)C)C(=O)c3ccc(S(=O)(=O)N4CC(C)OC(C)C4)cc3)nc2c1C (configuration not stated) was read as Rango release inh -14%, miR-21 reporter -5% and Rango-impB inh -3.6%.
`COc1ccccc1/C=C/CN1CCCC(CO)(Cc2cccc(Cl)c2)C1` (configuration not stated) gave Rango release inh -6%, miR-21 reporter 7%, Rango-impB inh -4.3% and GLA inh pH 4.5 -14.
Cc1cccc(NC(=O)NNC(=O)CCc2ccccc2)c1 was read as Rango release inh 19%, miR-21 reporter -3% and Rango-impB inh 3.9%.
Cc1csc(SC(C)C(=O)NCC(=O)Nc2ccc(F)c(F)c2F)n1 (configuration not stated) was read as Rango release inh -18%, miR-21 reporter 0%, Rango-impB inh inconclusive and GLA inh pH 4.5 5.
Screening CCN(c1ccccc1)S(=O)(=O)c1ccc(OCc2c(C)noc2C)cc1 returned Rango release inh -4%, miR-21 reporter -3%, Rango-impB inh 2.5% and GLA inh pH 4.5 4.
`Cc1ccc(OCC(O)CNC(C)c2ccccc2)cc1C` (configuration not stated) gave Rango release inh -11%, miR-21 reporter 10% and Rango-impB inh 0.4%.
O=C(Nc1ccccc1)C(Cc1ccccc1)NC(=O)C12CC3CC(CC(C3)C1)C2 (configuration not stated) was read as Rango release inh 11%, miR-21 reporter -1%, Rango-impB inh 2.3% and GLA inh pH 4.5 7.
N#C/C(C(=O)N1CCOCC1)=C1/SC(Cc2ccc(F)cc2)C(=O)N1c1ccccc1 (configuration not stated) was read as Rango release inh -5%, miR-21 reporter -2%, Rango-impB inh -3.6% and GLA inh pH 4.5 -4.
For COc1ccc(/C=N/n2cnn(Cc3ccccc3Cl)c2=S)cc1OC the results were Rango release inh 3%, miR-21 reporter -1%, Rango-impB inh 0.8% and GLA inh pH 4.5 -11.
`CC(C)C(=O)NNC(=O)CN1CCN(c2nc(-c3ccccc3)cs2)CC1` gave Rango release inh 0%, miR-21 reporter -13%, Rango-impB inh 4.0% and GLA inh pH 4.5 3.
`Cc1ccccc1-n1c(SCC(=O)Nc2c(C)cccc2C)nc(O)cc1=O` gave Rango release inh 10%, miR-21 reporter -1% and Rango-impB inh 4.3%.
For COc1ccc(Cl)cc1NC(=S)N(Cc1ccc(C(=O)O)cc1)Cc1ccc(OC)c(OC)c1 the results were Rango release inh 13%, miR-21 reporter -4%, Rango-impB inh 5.2% and GLA inh pH 4.5 -15[21.1 µM].

Some of these compounds in order of count of non-hydrogen atoms, smallest number first:
Cc1cccc(NC(=O)NNC(=O)CCc2ccccc2)c1 was read as Rango release inh 19%, miR-21 reporter -3% and Rango-impB inh 3.9%.
For COc1ccc(/C=N/n2cnn(Cc3ccccc3Cl)c2=S)cc1OC the results were Rango release inh 3%, miR-21 reporter -1%, Rango-impB inh 0.8% and GLA inh pH 4.5 -11.
Screening CCN(c1ccccc1)S(=O)(=O)c1ccc(OCc2c(C)noc2C)cc1 returned Rango release inh -4%, miR-21 reporter -3%, Rango-impB inh 2.5% and GLA inh pH 4.5 4.

(list continues)
For COc1ccccc1N1CCN(C(=O)COc2cc(C)cc3oc(=O)cc(C)c23)CC1 the results were Rango release inh 2%, miR-21 reporter -7% and Rango-impB inh 5.5%.
For COc1ccc(/C=C/C(=O)OCC(=O)NCCC2=CCCCC2)cc1S(=O)(=O)N1CCOCC1 the results were Rango release inh 39%, miR-21 reporter -6%, Rango-impB inh 1.6% and GLA inh pH 4.5 -14.
Screening CNC(=O)c1cn2c3c(ccc(Cl)c3c1=O)OC(C)C2 (configuration not stated) returned Rango release inh 7% and Rango-impB inh -0.2%.
For Cn1nnnc1SCc1ccccc1F the results were Rango release inh 1%, miR-21 reporter -4%, Rango-impB inh 4.9% and GLA inh pH 4.5 -1.
For CN(CC(=O)Nc1ccccc1F)Cc1cccs1 the results were Rango release inh 1%, miR-21 reporter -8% and Rango-impB inh 0.8%.
Cn1nc(C(=O)Nc2cccc(S(=O)(=O)N3CCCC3)c2)c2ccccc2c1=O was read as Rango release inh -12% and Rango-impB inh 1.1%.
`COc1cc2c(cc1NC(=O)CN1CCN(S(=O)(=O)c3ccccc3F)CC1)oc1ccccc12` gave Rango release inh -21%, miR-21 reporter -4%, Rango-impB inh -2.2% and GLA inh pH 4.5 -3.
For c1ccc(-c2nc3cccnc3nc2-c2ccccc2)cc1 the results were Rango release inh -1% and Rango-impB inh 0.4%.
O=C(O)C[C@H]1c2cc(F)ccc2S(=O)(=O)N1C1CCCCC1 was read as Rango release inh 12% and Rango-impB inh 0.7%.
Screening Cc1cc(C)c(S(=O)(=O)N(CC(=O)N2CCCC2)C2CCCCC2)c(C)c1 returned Rango release inh -9%, miR-21 reporter 12%, Rango-impB inh 0.0% and GLA inh pH 4.5 2.
Screening CC(=O)c1ccc(NC(=O)CNC2CCCCC2)cc1 returned Rango release inh 0%, miR-21 reporter -1% and Rango-impB inh -0.5%.
Screening Cc1cccc(N2CCN(C(=O)c3ccccc3NC(=O)C3CCCCC3C(=O)O)CC2)c1 (configuration not stated) returned Rango release inh 1%, miR-21 reporter 0%, Rango-impB inh -3.6% and GLA inh pH 4.5 2.
O=C(c1csc(Nc2cccc3ccccc23)n1)N1CCCC1 was read as Rango release inh -9%, miR-21 reporter -4%, Rango-impB inh -1.5% and GLA inh pH 4.5 8.
`CN(CC(=O)Nc1cc(S(=O)(=O)N2CCCC2)ccc1Cl)Cc1cccs1` gave Rango release inh -6%, miR-21 reporter 14%, Rango-impB inh 0.0% and GLA inh pH 4.5 -15.
`CCN(CC)S(=O)(=O)c1ccc(Cl)c(C(=O)OC)c1` gave Rango release inh 29%, miR-21 reporter -8%, Rango-impB inh -1.1% and GLA inh pH 4.5 -2.
For CCOC(=O)c1ccc(-n2ncc(C(=O)OCC)c2N)cc1 the results were Rango release inh 6%, miR-21 reporter -5%, Rango-impB inh -0.7% and GLA inh pH 4.5 5.
Screening O=C(COc1ccc(C(=O)O)cc1)Nc1cccc(C(F)(F)F)c1 returned Rango release inh 0%, miR-21 reporter -10%, Rango-impB inh -4.1% and GLA inh pH 4.5 -2.
O=C1OC2(O)C3C4C=CC(C4)C3C(=O)N2c2ccccc21 (configuration not stated) was read as Rango release inh 3%, miR-21 reporter 4%, Rango-impB inh 1.8% and GLA inh pH 4.5 1.
CCCn1c(SCC(=O)Nc2cccc(C(=O)OCC)c2)nnc1-c1ccoc1C was read as Rango release inh 1%, miR-21 reporter 9%, Rango-impB inh -0.5% and GLA inh pH 4.5 9.
COc1cc(C(=O)OC(C)CN2CCCCC2)cc(OC)c1OC (configuration not stated) was read as Rango release inh 1%, miR-21 reporter -4% and Rango-impB inh 1.3%.
For O=C(NCCSc1ccc(Br)cc1)c1ccccc1 the results were Rango release inh -8%, miR-21 reporter -10%, Rango-impB inh 2.5% and GLA inh pH 4.5 -5.
Screening COc1ccc(NC(=O)CN(C)C(=O)CSc2ccc3c(c2)OCCO3)cc1 returned Rango release inh -6%, miR-21 reporter -5% and Rango-impB inh 3.0%.
Screening Cc1cc(NC(=O)CCC(=O)N(Cc2ccco2)C(C(=O)NC2CCCC2)c2ccc(F)cc2)no1 (configuration not stated) returned Rango release inh 17%, miR-21 reporter 5% and Rango-impB inh 0.8%.
`CCn1c(CNC(=O)Cc2ccc(OC)cc2)nnc1SCC(=O)Nc1nccs1` gave Rango release inh -9%, miR-21 reporter -2%, Rango-impB inh -5.5% and GLA inh pH 4.5 -17.
`CCOc1ccc(-c2nnc(SCC(=O)NC(C)(C)C)nc2-c2ccc(OCC)c(OC)c2)cc1OC` gave Rango release inh 0%, miR-21 reporter -15% and Rango-impB inh 1.3%.
CC1CCc2ccc(F)cc2N1S(=O)(=O)c1cccs1 (configuration not stated) was read as Rango release inh 2%, miR-21 reporter 18%, Rango-impB inh 2.5% and GLA inh pH 4.5 -1.
Screening Cc1cc(C)n(CCNc2nc3nonc3nc2N2CCCCC2)n1 returned Rango release inh -6%, miR-21 reporter -1%, Rango-impB inh -1.2% and GLA inh pH 4.5 1.
Screening CCN(Cc1nc2cc(Cl)ccc2c(=O)[nH]1)C(=O)C1CC(=O)N(c2cccc3ccccc23)C1 (configuration not stated) returned Rango release inh 13% and Rango-impB inh 1.2%.
`COc1ccc(C(=O)CSc2ccccc2C(=O)O)cc1` gave Rango release inh 18%, miR-21 reporter 0%, Rango-impB inh 3.3% and GLA inh pH 4.5 -2.
For NNC(=O)C1CC(O)CN1S(=O)(=O)c1ccc2ccccc2c1 (configuration not stated) the results were Rango release inh -14% and Rango-impB inh -1.1%.
`COc1cccc(NC(=O)CCNS(=O)(=O)c2cccc3nonc23)c1` gave Rango release inh -1%, miR-21 reporter 1% and Rango-impB inh 7.6%.
`COCCn1c(Cc2ccccc2)nnc1SCC(=O)Nc1cc(C)on1` gave Rango release inh 6%, miR-21 reporter -4%, Rango-impB inh -1.4% and GLA inh pH 4.5 13.
CC(=O)N1CCN(C(=O)CSc2cc(C)c(Br)cc2C)CC1 was read as Rango release inh 17%, miR-21 reporter -36% and Rango-impB inh -1.0%.
COc1ccc(N2C(=S)NC3CS(=O)(=O)CC32)cc1 (configuration not stated) was read as Rango release inh 0%, miR-21 reporter 0%, Rango-impB inh -1.9% and GLA inh pH 4.5 8.
CCCNC(=O)CN(CCc1ccccc1)S(C)(=O)=O was read as Rango release inh 12%, miR-21 reporter 0%, Rango-impB inh -0.8% and GLA inh pH 4.5 10.
CCOc1cc(/C=C(\C#N)C(=O)Nc2cccc(C(=O)O)c2)cc(Br)c1OC(=O)c1ccc(OC)cc1 was read as Rango release inh inconclusive, miR-21 reporter 0% and Rango-impB inh inconclusive.
Screening O=C(c1cc2ccccc2cc1O)N1CCCC1 returned Rango release inh -3%, miR-21 reporter -1% and Rango-impB inh 1.2%.
Screening Cc1[nH]c2ccccc2c1C(=O)COC(=O)C1CC(=O)N(Cc2ccco2)C1 (configuration not stated) returned Rango release inh -4%, miR-21 reporter -1%, Rango-impB inh -0.4% and GLA inh pH 4.5 -6.

These rows are one share of the data; rates above refer to the full screens.
